# Assay outcomes (PubChem BioAssay)
# ClpP mod: qHTS Assay for Activators of ClpP. ATP-dependent Clp protease proteolytic subunit (Bacillus subtilis (strain 168)), P80244. purified B. subtilis ClpP, FRET peptide cleavage, 20 min. Potency, µM (highest dose often 57.5 µM), for inactives: top-dose activity change, negative = active. actives 1.9% (n = 340,000). AID 651965, 2013; active = well fitted falling curve with a large enough effect; inconclusive = small, poorly fitted or top-dose-only effect; inactive = no such curve, though single readings can be large or run the other way; also: potency is read from the fitted curve at half-maximal effect; the source files actives as falling curves though it sought activators and does not explain the sign; nearly all actives have a fitted effect of over 65% in size; many hits overshoot -100%
#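 Buffer: 100 mM Tris/HCl pH8, 100 mM KCl, 0.05% low protease BSA, 2.5% glycerol, 0.01% Tween-20. ClpP 10 microg/mL final; 20 min RT; delta FRET normalized to ADEP and DMSO controls.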
# TRPV1 PAM: enhances activation of the human vanilloid receptor TRPV1; Q8NER1; TRPV1-expressing cells, Fluo-8 calcium influx, capsaicin EC20 potentiation; host cell line not named in the record; control for the full effect not named in the record; potentiation, % at 8.33 µM; actives 0.02% (n = 320,000); active means potentiation above 80%; inconclusive means 30% to 80%; inactive means below 30%; also: 0% is about no effect
# Target sequence (Q8NER1 whole entry, looked up): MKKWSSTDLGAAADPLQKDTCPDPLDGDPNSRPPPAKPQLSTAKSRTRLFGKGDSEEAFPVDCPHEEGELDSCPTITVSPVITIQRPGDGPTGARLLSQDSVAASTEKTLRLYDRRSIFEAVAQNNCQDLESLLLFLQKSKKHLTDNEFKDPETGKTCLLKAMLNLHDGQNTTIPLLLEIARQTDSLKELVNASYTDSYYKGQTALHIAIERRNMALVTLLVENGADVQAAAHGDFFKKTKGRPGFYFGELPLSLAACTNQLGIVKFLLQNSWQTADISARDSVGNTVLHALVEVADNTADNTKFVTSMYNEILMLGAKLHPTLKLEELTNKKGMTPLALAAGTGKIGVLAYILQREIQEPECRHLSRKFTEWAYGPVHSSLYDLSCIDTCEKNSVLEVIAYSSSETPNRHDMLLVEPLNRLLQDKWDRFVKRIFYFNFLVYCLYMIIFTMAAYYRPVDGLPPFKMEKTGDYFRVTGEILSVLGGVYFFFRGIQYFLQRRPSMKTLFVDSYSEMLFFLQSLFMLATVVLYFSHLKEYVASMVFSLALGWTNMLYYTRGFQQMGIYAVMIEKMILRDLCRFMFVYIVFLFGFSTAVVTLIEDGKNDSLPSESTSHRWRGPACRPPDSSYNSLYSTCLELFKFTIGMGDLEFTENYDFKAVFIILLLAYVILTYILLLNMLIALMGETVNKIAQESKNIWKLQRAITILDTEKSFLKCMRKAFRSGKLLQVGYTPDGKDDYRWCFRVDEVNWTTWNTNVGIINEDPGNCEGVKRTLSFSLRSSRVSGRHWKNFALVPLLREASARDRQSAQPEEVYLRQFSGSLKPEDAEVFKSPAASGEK
#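 TRPV1-expressing cells were cultured overnight at 35.5C and loaded with Fluo-8 calcium dye for 40 to 90 min at room temperature. After a 10 s baseline, compound was added and calcium influx was read kinetically for 3 min (ex 480/em 520 nm).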
# Sfp PPTase inh: blocks B. subtilis Sfp PPTase activity; Q9F4F7; Biochemical Sfp PPTase activity, qHTS; Potency, µM, without a hit: max response, negative = inhibition, actives largely listed as inhibitors; actives 3.5% (n = 310,000); AID 1490; active = well fitted inhibition curve with a large enough effect; inconclusive = small, poorly fitted or top-dose-only effect, or another doubt; inactive = no such curve, though single readings can be large or run the other way;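 also: the enzyme is Sfp with the accession as filed and its product quenches rhodamine fluorescence; potency is read from the fitted curve at half-maximal effect; 0% = enzyme reaction without inhibitor and -100% = no enzyme wells; top concentration of the series not given in the record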
#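 Step 1, compound plus 15 nM Sfp-PPTase, 15 min, room temperature. Step 2, add rhodamine-CoA (5 uM) and BHQ-2-YbbR (12.5 uM). Step 3, read 525/598 nm fluorescence at 0 and 30 min.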
# gsp antag: gsp mutant antagonism; gsp-mutant cells, cAMP HTRF, 30 min; control for the full effect not named in the record; Potency, µM (highest dose often 76.9 µM), inactives show at the highest dose activity change, negative = inhibition, hits mostly inhibitors; actives 0.4% (n = 340,000); active = falling curve of any shape with a large fitted effect; inconclusive = falling curve, mostly with a smaller effect; inactive = flat or rising curve; cell line not stated here;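 also: intracellular cAMP measured with PDE inhibitor Ro 20-1724 present during compound exposure; potency is read from the fitted curve at half-maximal effect; % is scaled to controls: 0 for no effect and ±100 for the full control effect; nearly all actives have a fitted effect of over 65% in size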
#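 Cells, 2000/well, grown 16–24 h in DMEM 10% FBS with 0.5 mg/ml G418, then compounds plus […] (300 uM addition stock), 30 min at 37C. cAMP read by HTRF (cAMP-d2 and anti-cAMP antibody-K in lysis buffer) after 30 min RT.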
# Menin-MLL FL inh: displaces fluorescein MLL peptide from human menin. Fluorescence polarization, fluorescein-MLL peptide displacement from menin. FP activity change, % at 61.4 µM. 290,000 tested, under 10 active. AID 1766; inconclusive = falling polarisation curve, or a change in total fluorescence; inactive = total fluorescence flat and polarisation flat or rising; no compound was filed as active; the % refers to the polarisation; negative = inhibition;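 also: % of control where 0% means no effect; inhibitors lower the polarisation; unlabelled MLL peptide was the positive control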
# gsp ag: agonists of gsp mutant (McCune-Albright syndrome); AID 624287; Potency, µM (top dose mostly 76.9 µM), for the others: top-dose activation (cAMP increase), actives largely listed as activators; actives 0.13% (n = 340,000); gsp mutant cells, cAMP HTRF, 30 min; control for the full effect not named in the record; active = well fitted activation curve with a large enough effect; inconclusive = small, poorly fitted or top-dose-only effect, or another doubt; inactive = no such curve, though single readings can be large or run the other way; cell line not stated here;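 also: phosphodiesterase inhibitor Ro 20-1724 added with compounds to block cAMP breakdown; potency is read from the fitted curve at half-maximal effect; nearly all actives have a fitted effect of over 60% in size; about a fifth of the inactives were tested at one dose only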
#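 Cells stably selected in G418 were plated at 2000/well, grown 16-24 hr, then given compounds in DMSO with the PDE inhibitor […] (300 uM solution added) for 30 min at 37C; cAMP was read by HTRF.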
# CtBP-E1A blk: blocks the CtBP interaction with E1A; AlphaScreen GST-E1A/His-CtBP binding, 1536-well; hits give low values; control for the full effect not named in the record; activity change, % (test concentration not listed); actives 0.49% (n = 340,000); in the data active means activity change below about -65%; inconclusive means about -30% to -65%; inactive means above about -30%; also: % is scaled to controls: 0 for no effect and ±100 for the full control effect; compound concentration not given in the record
#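 In 5 uL wells, 23 nL compound meets equimolar GST-E1A and His-CtBP (5X stock 125 nM each) for 2 h, 37 °C. Beads (5X, 50 ug/mL) then 1 h, 37 °C, dark.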
# Active calls of the source: *; ? = inconclusive; / = no result given; & = joins results of further samples; [ ] = remark or other dose. No enrichment for hits (roughly 5.3% active in at least one column).
SMILES,ClpP mod,TRPV1 PAM,Sfp PPTase inh,gsp antag,Menin-MLL FL inh,gsp ag,CtBP-E1A blk
CC(=O)NC12CC3CC(C1)CC(C(=O)Nc1ccc(C)c(S(=O)(=O)N4CCCCCC4)c1)(C3)C2,-2.6%,/,/,-4%,/,4%,-22
Cc1ccc(NS(=O)(=O)c2c(C)ccc3nsnc23)c([N+](=O)[O-])c1,-0.8%,2,12%,-26%,-2.4,12%,-3
O=C(NCc1ccccc1)C(=O)Nc1nc(-c2ccccc2)cs1,-22%,17,7%,3%,-4.3,5%[15.4 µM],-13
CC(CN1CCCC1)C(=O)NN (centres undefined),1.2%,-1,1%,12%,-0.1,-47%[inhibitor],/
Cc1ccc(CC(=O)Nc2ccccc2N2CCOCC2)cc1C,-0.2%,-36,-2%,-9%,-3.9,?,-2
Cc1ccc(NC(=O)NCCN2CCCCC2)cc1Cl,/,-2,9%,7%,-0.1,1%,3
Cc1cc(C)n(CCC(=O)Nc2ccc(-c3ccno3)cc2)n1,-2.3%,22,-1%,0%,2.5,-1%,/
O=C1NC(=S)S/C1=C/c1ccc(OC(=O)c2ccco2)cc1,-1.1%,10,-3%,?,?,4%,-15
COc1ccc(-c2oc(NC(=O)CSc3ncn[nH]3)c(C#N)c2-c2ccc(OC)cc2)cc1,0.4%,-2,9%,?,2.5,-3%,4
COc1cc(CNC(=O)c2ccc3oc(C(C)C)nc3c2)cc(OC)c1,-6.7%,15,0%,-6%,-3.5,21%,-15

# An excerpt of these results, tab-delimited:
canonical_smiles	ClpP mod	TRPV1 PAM	Sfp PPTase inh	gsp antag	Menin-MLL FL inh	gsp ag	CtBP-E1A blk
O=C(NCc1ccccc1)C(=O)Nc1nc(-c2ccccc2)cs1	-22%	17	7%	3%	-4.3	5%[15.4 µM]	-13
CC(CN1CCCC1)C(=O)NN (centres undefined)	1.2%	-1	1%	12%	-0.1	-47%[inhibitor]	/
Cc1ccc(CC(=O)Nc2ccccc2N2CCOCC2)cc1C	-0.2%	-36	-2%	-9%	-3.9	?	-2
Cc1ccc(NC(=O)NCCN2CCCCC2)cc1Cl	/	-2	9%	7%	-0.1	1%	3
Cc1cc(C)n(CCC(=O)Nc2ccc(-c3ccno3)cc2)n1	-2.3%	22	-1%	0%	2.5	-1%	/
O=C1NC(=S)S/C1=C/c1ccc(OC(=O)c2ccco2)cc1	-1.1%	10	-3%	?	?	4%	-15

# Later entries:
SMILES,ClpP mod,TRPV1 PAM,Sfp PPTase inh,gsp antag,Menin-MLL FL inh,gsp ag,CtBP-E1A blk
COc1ccc(NC(=O)COc2ccc(C(=O)c3ccc(F)cc3)cc2)cc1S(N)(=O)=O,-1.4%,3,-9%,-13%,-2.0,-5%[15.4 µM],-9
Cc1cccc(C(=O)OCC(=O)N2CC(C)CC(C)C2)c1C (centres undefined),/,/,/,-13%,/,-39%[inhibitor],10
CCN(CC)CCn1c2c(c(SCC(=O)Nc3nc4ccc(C)cc4s3)nc1=O)CCC2,3.8%,-5,/,10%,/,-4%,3
CCn1c2ccccc2c2cc(NC(=O)CSc3nnc(-c4ccccc4OC)n3N)ccc21,-10%,3,12%,0%,0.7,16%,-9
COc1ccc(CN2CCC(C(=O)Nc3ccc(Oc4ccccc4)nc3)CC2)cc1F,0.9%,-14,9%,7%,-4.2,15%[15.4 µM],-6
CC1(C)CC2CC(C)(CN2C(=O)COC(=O)c2cncc(Br)c2)C1 (centres undefined),-1.1%,-10,/,-9%,/,-13%,8
Cc1cccc(/C=C/c2onc(C)c2S(=O)(=O)N2CCC(C(=O)N3CCC(C)CC3)CC2)c1,-0.1%&-8.7%,-7,-11%,-7%,/,?,-22
COc1ccccc1COc1ccc2c(C)c(CC(=O)O)c(=O)oc2c1C,3.9%,3,10%,-20%,0.9,-17%,1
CC1(C)C(C#N)=C(N)Oc2c1c(=O)oc1ccccc21,-0.3%,-9,-3%,3%,0.0,-3%,10
CCc1ccc(-c2nc(CN3CCC(C(=O)NCc4ccco4)CC3)c(C)o2)cc1,-2.7%,-9,-5%,12%,1.1,1%,-1
CCc1c(C)nc2cc(-c3cc(OC)cc(OC)c3)nn2c1N1CCN(CCN2CCOCC2)CC1,?,25,-19%,12%,-2.1,?,0
COc1ccc(Cc2c(Cl)ncnc2Cl)cc1,-3.8%,-14,-7%,1%,-0.7,-15%,-6
O=C(Nc1cccc(S(=O)(=O)C(F)F)c1)c1ccc(Cl)c(S(=O)(=O)N2CCOCC2)c1,2.0%,-3,20%,28µM*,0.0,11%,-3
O=C(CN1CCN(S(=O)(=O)c2cccc(F)c2)CC1)Nc1ccnn1C1CCCC1,1.2%,-15,/,-32%,/,24%,10
Cc1ccc(C2=NN(C(=O)CCl)C(c3ccco3)C2)o1 (centres undefined),/,-11,7%,0%,0.9,?,11
CCCCN(Cc1cc2cc(OC)ccc2[nH]c1=O)C(=O)COc1ccccc1,-7.7%,/,/,7%,/,-8%,0
CC(=O)c1ccc(NC(=O)CSc2nnc(NC(=O)c3ccco3)s2)cc1,-1.9%,-5,7%,11%,/,?,-5
CCOC(=O)c1nnc(-c2ccccc2)nc1NCc1ccccc1,-0.5%,-1,?,-15%,2.9,1%,-15
Cc1nn(C)c(C)c1S(=O)(=O)N(CC(=O)NC1CCCCCC1)c1ccc(C(C)C)cc1,-2.1%,0,24%,7%,8.9,-38%[inhibitor],-22
O=C(C1=C(O)C(=O)N(c2nccs2)C1c1ccccc1)c1cc2ccccc2o1 (centres undefined),/,4,5µM*,-7%,?,?,-1

# Quoted from the listing:
# Reading of CC(=O)c1ccc(NC(=O)CSc2nnc(NC(=O)c3ccco3)s2)cc1 in gsp antag: 11%
# Reading of CCOC(=O)c1nnc(-c2ccccc2)nc1NCc1ccccc1 in Menin-MLL FL inh: 2.9

# Just TRPV1 PAM and gsp antag (2 entries from above):
compound	TRPV1 PAM	gsp antag
COc1cc(CNC(=O)c2ccc3oc(C(C)C)nc3c2)cc(OC)c1	15	-6%
COc1ccc(NC(=O)COc2ccc(C(=O)c3ccc(F)cc3)cc2)cc1S(N)(=O)=O	3	-13%

# Remaining list, next part.
SMILES,ClpP mod,TRPV1 PAM,Sfp PPTase inh,gsp antag,Menin-MLL FL inh,gsp ag,CtBP-E1A blk
CCn1ncc(S(=O)(=O)Nc2cc(Cl)ccc2C)c1C,-0.7%,14,7%,0%,/,10%,-1
COc1cccc(Cn2cccc(NC(=O)NCc3ccccc3)c2=O)c1,/,6,17%,3%,5.9,?,0
Cc1cnc(C(=O)OCC(=O)Nc2ccc(OCc3ccccc3)cc2)cn1,1.0%,0,/,10%,/,-45%[inhibitor],5
COc1ccc(NC(=S)Nc2ccccc2)cn1,-15%,4,-8%,8%,13,-5%,3
CCc1cccc(NC(=O)C2CCCN(S(=O)(=O)c3cccs3)C2)c1 (centres undefined),-2.0%,-4,-5%,-7%,-15,7%,7
c1ccc(Cc2nn3c(Cn4nnc5ccccc54)nnc3s2)cc1,1.1%,-1,35µM*,-9%,2.4,-6%,-7
